# From PubChem BioAssay
# Bm FixLJ act: activators of Burkholderia fixLJ two-component system | B. multivorans fixK-promoter GFP reporter, 18 h; stronger effect = higher value | z-score (no concentration beside the values) | 29,000 tested, 0.3% active;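 active means replicate mean overnight rise in green fluorescent reporter signal, 3 or more SD over negative controls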;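 further: score is relative to vehicle wells of the plate; 300 nL library stock went into each well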
# An asterisk follows results filed as active; & = joins results of further samples. Not all compounds are listed (hit frequency here may not be typical).
SMILES,Bm FixLJ act
COc1cc(OC)c(C2C=C(C(=O)O)Nc3ncnn32)cc1OC (stereo not drawn),-0.14
COc1ccc(C(=O)Nc2cc3c(cc2C(=O)c2ccccc2Cl)OCCO3)cc1,0.08
Cc1nc(SCC(=O)N2CCC3(CCCN(C(C)C)C3=O)C2)n[nH]1 (stereo not drawn),-0.49
COc1cc(Br)c(C2CC(=O)Nc3cc4c(cc32)OCCO4)cc1OC (stereo not drawn),-0.45
CCCCCn1c(=O)[nH]c2cc(C(=O)N3CCN(c4ccccc4)CC3)ccc2c1=O,-0.35
Cn1ncc2c(N)nc(N3CCCC(OCc4ccccn4)C3)nc21 (stereo not drawn),-1.8
COC(=O)c1ccccc1NC(=O)CSc1nc(=O)cc(N)n1-c1ccccc1,-1.2
CC(C)c1cc(C(=O)N2CCC(n3cc(-c4ccccn4)nn3)CC2)n(C)n1,0.2
COCC(=O)Nc1ccc(Cl)c(NC(=O)NCCc2nnc(C)s2)c1,-0.08
CCOC(=O)C1=C(CN(CC)Cc2ccccc2)NC(=O)NC1c1ccc(Cl)cc1 (stereo not drawn),1.5
COc1cccc(-c2nc(SCC(=O)NC3CCCC3)c(-c3ccc(F)cc3)[nH]2)c1,-1.6
Cc1cc(C)cc(Nc2cc(C)nc3nncn23)c1,-2.1
CCc1ccccc1NC(=O)Cn1nc(CC)n2c(cc3sccc32)c1=O,-0.28
CCCSCCCNC(=O)C1CCN(C(=O)c2cnn(-c3ccccc3)c2-n2cccc2)CC1,-1.7
COc1ccc(S(=O)(=O)N2CCC(C(=O)Nc3ccc(Oc4ccccc4)cc3)CC2)cc1,-0.07
O=C(Nc1ccc(S(=O)(=O)Nc2ncccn2)cc1)c1cc(=O)c2ccccc2o1,-1.7
O=C(NCC1(O)CCCCC1)c1ccc(-c2cncc(=O)[nH]2)cc1,-1.7
Cc1nn(-c2ccc(F)cc2)c(C)c1CNC(=O)N1CCc2n[nH]c(C)c2C1,0.22
CC(C)NCC(O)c1ccc(N)c(C#N)c1 (stereo not drawn),-1
Cc1ccc2oc(NC3CCN(CC(=O)N(C)C)CC3O)nc2c1 (stereo not drawn),-4.6

# The closing 2 records of the part before come first, to join the parts.
SMILES,Bm FixLJ act
CC(C)NCC(O)c1ccc(N)c(C#N)c1 (stereo not drawn),-1
Cc1ccc2oc(NC3CCN(CC(=O)N(C)C)CC3O)nc2c1 (stereo not drawn),-4.6
CCN1CCN(Cc2c(O)ccc3c(=O)c(Oc4ccccc4C(C)C)c(C(F)(F)F)oc23)CC1,-1.1
Cc1cc(C)cc(NC(c2cccc(Cl)c2)c2nnc(-c3ccccc3)o2)c1 (stereo not drawn),-1.3
Cc1ccccc1Cn1c(SCc2ccc(C(=O)NCCc3ccccc3)cc2)nc2ccncc21,-2.6
Cc1ccc2c(c1)cc1c(=O)n(CC(=O)NC3CCCCC3)nc(C)n12,-0.74
O=C(Nc1ccccc1F)c1nc(S(=O)(=O)Cc2ccccc2F)ncc1Cl,-0.32
COc1cc2c(c(OC)c1OC)-c1ccc(OC)c(=O)cc1[C@@H](NC(C)=O)CC2,-0.33
CC(=O)Nc1cccc(NC(=O)CN2C(=O)CCSc3ccccc32)c1,-1.4
O=C1CCC(NCCc2cnn(-c3ccccc3)c2)CN1Cc1ccccc1 (stereo not drawn),-1.4
CCOc1ccc(N2CC(c3nc4ccccc4n3CCCOc3ccccc3)CC2=O)cc1 (stereo not drawn),-4
COC(=O)c1ccc([C@H]2Nc3ccc(S(=O)(=O)Nc4ccc(F)cc4)cc3[C@H]3C=CC[C@H]32)cc1,-0.05
Cn1c(CN2CCCCC2)nnc1C1CCN(c2ncccn2)CC1,0.63
Cc1nc2cc(-c3cccc(F)c3)nn2c(C)c1CCC(=O)NCCc1ccccc1,-0.53
O=C(COc1ccccc1Cl)Nc1ccc(Cl)c(-c2nc3ccccc3o2)c1,-2.2
COc1ccc(NC(=O)CCc2c(C)nc3c(-c4ccc(F)cc4)c(C)nn3c2C)c(OC)c1,-2.3
Cc1ccc(CNC(=O)CCCCCn2c(=O)c3sccc3n(CC(=O)Nc3c(C)cc(C)cc3C)c2=O)cc1,-1.9
COc1ccccc1NC(=O)Cn1c(=O)n(-c2cccc(Cl)c2)c(=O)c2sc3ccccc3c21,-0.72
Cc1ccc(Nc2nc(N)nc(N)c2S(=O)(=O)c2ccccc2)cc1,-1.9
CC(C)c1nc(CCNC(=O)N2CC3CC(O)C(O)CC3C2)no1 (stereo not drawn),-1.3
Cc1ccc2oc(=O)c3cnn(CC(=O)N4CCN(c5cccc(Cl)c5)CC4)c3c2c1,-0.56
CCc1cccc(C)c1Nc1c(-c2ccc(F)cc2)nc2sccn12,0.58

# Individual results from the list.
# Under Bm FixLJ act, `CCOc1ccc(N2CC(c3nc4ccccc4n3CCCOc3ccccc3)CC2=O)cc1` (stereo not drawn) shows -4
# Under Bm FixLJ act, `Cc1ccc(CNC(=O)CCCCCn2c(=O)c3sccc3n(CC(=O)Nc3c(C)cc(C)cc3C)c2=O)cc1` shows -1.9
# Under Bm FixLJ act, `O=C(Nc1ccccc1F)c1nc(S(=O)(=O)Cc2ccccc2F)ncc1Cl` shows -0.32
# Under Bm FixLJ act, `COc1cc2c(c(OC)c1OC)-c1ccc(OC)c(=O)cc1[C@@H](NC(C)=O)CC2` shows -0.33
# Under Bm FixLJ act, `CC(C)c1nc(CCNC(=O)N2CC3CC(O)C(O)CC3C2)no1` (stereo not drawn) shows -1.3

# Next results.
SMILES,Bm FixLJ act
Cc1ccc(C(=O)c2c(N)c(-c3nc(-c4ccc5c(c4)OCO5)cs3)c3ccccn23)cc1C,-0.7
O=C(NC(Cc1ccncc1)C1CC(O)C1)c1cc2c(s1)CCCCC2 (stereo not drawn),-1.9
Cc1cc(C)cc(NC(=O)CCc2nnc3n(C)c(=O)c4sccc4n23)c1,0.46
CC(C)c1ccc(CN(C(=O)c2cc3ccccc3oc2=O)C2CCS(=O)(=O)C2)cc1 (stereo not drawn),-4
CCC(Sc1nnc2c3ccccc3n(CC)c2n1)C(=O)Nc1ccc(NC(C)=O)cc1 (stereo not drawn),-2.8
CCOC(=O)c1ccc(-c2ccc(/C=C(\C#N)C(=O)Nc3ccc(OCC)cc3)o2)cc1,0.84
Cc1ccc(C(c2cccc(Br)c2)c2c(C)[nH]c3ccccc23)s1 (stereo not drawn),-0.01
CS(=O)(=O)NC1CCCC(CNC(=O)Cn2cc3ccccc3n2)C1 (stereo not drawn),-1
Cn1ccc2c(C(=O)N(CCO)Cc3nccs3)cccc21,-2
COc1ccc(C2CC(=O)c3cc(-c4nc(-c5cccc([N+](=O)[O-])c5)cs4)c(=O)n(-c4ccccc4N)c3C2)cc1 (stereo not drawn),-0.8
CCOc1ccc(N2CC(c3nc4ccccc4n3Cc3cccc(Cl)c3)CC2=O)cc1 (stereo not drawn),-1.6
CCOC(=O)C1CCN(C(=O)Cn2nc(C)n3c(cc4c(OC)cccc43)c2=O)CC1,-1.2
Cc1ccc2occ(CC(=O)N(Cc3ccccc3Cl)C3CCS(=O)(=O)C3)c2c1 (stereo not drawn),-1.1
Cc1ccc(NC(=O)Cn2c(=O)n(-c3ccc(Cl)c(Cl)c3)c(=O)c3c(C)c(C)sc32)c(C)c1,-0.4
CC(=O)c1cccc(NC(=O)CN(c2cc(C)cc(C)c2)S(=O)(=O)c2c(C)noc2C)c1,-0.65
OCc1cc2n(n1)CCCN(Cc1ccc(SC3CCCCC3)o1)C2,-0.57
Cc1ccc(C(=O)N(C)Cc2nc3ccc(F)cc3[nH]2)c(=O)[nH]1,0.21
CCc1nnc(CN(C)C(=O)c2ccccc2-n2cncn2)o1,-1.7
NC(=O)CN1CCC2(CC1)CC(=O)N(CCCOc1ccccc1)CCO2,0.71
Cc1ccc2oc(=O)n(Cc3ccccc3Cl)c2c1,0.75
N#Cc1ccc(C(=O)N2CCc3c(nc(-c4cccnc4)[nH]c3=O)C2)cn1,-0.59
COc1ccc(N2CCN(C(=O)c3cn(C)c4ccc(S(=O)(=O)N5CCOCC5)cc4c3=O)CC2)cc1,-1.9
CCOC(=O)c1ccc(NC(=O)CCCc2nc(-c3ccccc3Cl)no2)cc1,-0.52
CO[C@@H]1[C@@H](OC(N)=O)[C@@H](O)[C@H](Oc2ccc3c(O)c(NC(=O)c4ccc(O)c(CC=C(C)C)c4)c(=O)oc3c2C)OC1(C)C,-6.1
Cc1ccc(-c2cc(C(=O)Oc3ccccc3)c3cccc(C)c3n2)cc1,-1.1
CCOC(=O)c1ccc(NC(=O)c2nc(SCc3ccc(F)cc3)ncc2Cl)cc1,0.59
CN(C)c1ccc(C(=C2C=CC(=[N+](C)C)C=C2)c2ccc(N(C)C)cc2)cc1,-3.3
COc1c(Cl)cc(Cl)cc1C(=O)Nc1cccc2cccnc12,0.52
Cc1ccc(NC(=O)Nc2c(C)n(C)n(-c3ccccc3)c2=O)c(Cl)c1,-1.1
CC(C)n1cnnc1CCNC(=O)c1cccc(-c2cc(F)ccc2O)c1,-0.53
O=C(Nc1ccc(NC(=O)c2cc3ccccc3o2)cc1)c1ccccc1,2
Cc1oc2ccc(O)c(CN(C)Cc3ccccc3)c2c1C(=O)Nc1cccc(Cl)c1C,-1.8
CCCCSCCCNC(=O)C1CCN(Cc2nc(-c3ccc(CC)cc3)oc2C)CC1,-1.1
CCOc1cc(C(=O)Nc2ccc(S(=O)(=O)Nc3cc(OC)nc(OC)n3)cc2)cc(OCC)c1OCC,-1.9
CCOC(=O)[C@@]12CCC(N3CCOCC3)C[C@H]1CCN(C(=O)Cc1ccc(C)cc1)C2 (stereo partly drawn),-0.82
O=C(NCC1CCCN(c2ccncc2F)C1)c1ccco1 (stereo not drawn),-0.17
COc1ccccc1NC(=O)COc1ccc(-c2nn(C)c(=O)c3ccccc23)cc1,-0.85
CC(C)CCNC(=O)CN1C(=O)c2cccnc2Oc2ccccc21,-0.32
O=C(Cn1cccn1)NCC1CCN(c2ncccn2)CC1,-2
CCOc1ccc(NC(=O)C(=O)NCCc2ccccc2)cc1,-1.5
CC(=O)Nc1nonc1-c1nc2ccccc2n1Cc1ccccc1Br,-3.5
COc1ccc(C(CNC(=O)COc2cc(C)c(Cl)c(C)c2)N2CCCCC2)cc1 (stereo not drawn),-2.1
CCN(c1ccccc1)S(=O)(=O)c1ccc(NC(=O)c2cc(=O)c3cc(C)ccc3o2)cc1,-0.86
COc1cc(Cl)c(C)cc1NC(=O)CCc1nc2cccnc2n1-c1ccccc1,-1.6
Cn1cnnc1CC1CCN(S(=O)(=O)c2ccccc2Cl)CC1,1.1
CC1=C(c2ccc(C)c(C)c2)S(=O)(=O)N(Cc2ccc(C(=O)NCc3cccc(C)c3)cc2)C1=O,-2.4
CSCC(NC(=O)N1CCC2(CCc3ccccc32)CC1)C(=O)O (stereo not drawn),-2.3
CCOC(=O)c1cccc(NC(=O)c2cc3c(Cl)nc4ccc(C)cc4c3s2)c1,-0.26
CC(C)CCNC(=O)c1ccc2c(c1)N(Cc1ccccc1F)C(=O)c1ccccc1S2=O (stereo not drawn),0.95
O=C(Nc1c(C(=O)Nc2cccc(F)c2)oc2ccccc12)c1cc2ccccc2o1,0.25
O=C(CSc1nnc2scc(-c3ccc(Cl)cc3)n12)Nc1ccc(F)cc1,-1.5
COc1ccc(CCNC(=O)c2cc3c(s2)-c2ccccc2OC3)cc1OC,0.17
CCOC(=O)C1CCN(C(=O)Cn2nc(C)n3c(cc4sccc43)c2=O)CC1,-1.4
CCN(CC)CCOC(=O)c1ccc(NC(=O)Cn2ncc3c2-c2cc(C)ccc2OC3)cc1,-1.6
COc1ccc(-c2nc(SCC(=O)NCC3CCCO3)c(-c3ccc(Cl)cc3)[nH]2)cc1 (stereo not drawn),-1.9
COc1cccc(-c2cc(C(=O)O)cc(S(=O)(=O)N3CCOCC3)c2)c1,-1.8
COc1cc(NC(=O)c2cc(Cl)c(OC)c(Cl)c2)ccc1NC(=O)c1cc2ccccc2o1,-1.3
C#CCN(C)C(C)Cc1ccccc1 (stereo not drawn),-1.8&-1.4
CCC(CC)CN1CCCn2nc(CNC(=O)C3CCC3)cc2C1,-3
COc1cc(OC)cc(C(=O)Nc2ccc3oc(-c4cccc5c(Br)cccc45)nc3c2)c1,-0.28

# (continued)
SMILES,Bm FixLJ act
COc1ccc(S(=O)(=O)N(CC(=O)NC(C)c2ccccc2)c2ccc(C)cc2)cc1OC (stereo not drawn),-1.1
COc1cc(C2C(C(=O)Nc3ccc(Cl)cc3)=C(C)Nc3nc(SC)nn32)cc(OC)c1OC (stereo not drawn),-2
Cc1nc2scc(C)n2c(=O)c1S(=O)(=O)Nc1ccc(N2CCN(C(=O)C(C)C)CC2)cc1,-0.44
COC(=O)c1ccc([C@@H]2Nc3c(C)cc(C)cc3[C@@H]3C=CC[C@@H]32)cc1,-2.4
COc1ccc(NC(=O)c2sc3nc4c(cc3c2N)CCCCCC4)cc1,0.2
CCOC(=O)CC(NC(=O)CCc1c(C)nc2c(-c3ccccc3)c(C)nn2c1C)c1ccc(C)cc1 (stereo not drawn),-0.45
CCOC(=O)c1cccc(Nc2c3c(nc4ccccc24)CCC3)c1,1.2
COc1ccccc1NC(=O)CCn1nc(-c2ccccc2)c2ccccc2c1=O,0.79
COc1ccc(CNc2nc(-c3ccco3)nn2C(=O)c2ccccc2C)cc1,-1.7
COc1ccc(-c2n[nH]c3c2C(c2ccc(O)cc2)N(c2ccc(Br)cc2)C3=O)cc1 (stereo not drawn),0.12
Oc1c(Br)cc(Br)cc1-c1nc2ccccc2s1,0.33
COc1ccc(-n2nc(C(=O)N(C)c3cc(C)ccc3C)c3c4ccccc4n(C)c3c2=O)cc1Cl,-1.1

# Reformatted: entries from further up.
Compound | Bm FixLJ act
Cc1nc2scc(C)n2c(=O)c1S(=O)(=O)Nc1ccc(N2CCN(C(=O)C(C)C)CC2)cc1 | -0.44
COc1ccc(-c2n[nH]c3c2C(c2ccc(O)cc2)N(c2ccc(Br)cc2)C3=O)cc1 (stereo not drawn) | 0.12
COc1ccc(S(=O)(=O)N(CC(=O)NC(C)c2ccccc2)c2ccc(C)cc2)cc1OC (stereo not drawn) | -1.1
COc1cc(C2C(C(=O)Nc3ccc(Cl)cc3)=C(C)Nc3nc(SC)nn32)cc(OC)c1OC (stereo not drawn) | -2
COc1ccc(-n2nc(C(=O)N(C)c3cc(C)ccc3C)c3c4ccccc4n(C)c3c2=O)cc1Cl | -1.1
COc1ccc(NC(=O)c2sc3nc4c(cc3c2N)CCCCCC4)cc1 | 0.2
COc1ccc(CNc2nc(-c3ccco3)nn2C(=O)c2ccccc2C)cc1 | -1.7
